# Vaccinia Venus – qHTS for Stage-Specific Inhibitors of Vaccinia Orthopoxvirus: Venus Reporter Primary qHTS; Vaccinia virus Venus reporter expression, fluorescence; Potency, µM (top dose mostly 36.5 µM), inactives show at the top dose activity change, negative = inhibition, actives largely listed as inhibitors; 330,000 compounds, 0.46% hits; active means well fitted inhibition curve with a large enough effect; inconclusive means small, poorly fitted or top-dose-only effect; inactive means no such curve, though single readings can be large or run the other way; tested in A549 cells; also: nearly all actives have a fitted effect of over 30% in size; inactives centre near -10
# Vaccinia mCherry – qHTS for Stage-Specific Inhibitors of Vaccinia Orthopoxvirus: mCherry Reporter Primary qHTS | Vaccinia virus mCherry reporter infection, fluorescence; about a quarter of the inactives have no number | Potency, µM (series often up to 36.5 µM), without a hit: at the highest dose activity change, negative = inhibition, actives largely listed as inhibitors | 310,000 compounds, 0.63% hits | AID 720579, 2013; active = well fitted inhibition curve with a large enough effect; inconclusive = small, poorly fitted or top-dose-only effect; inactive = no such curve, though single readings can be large or run the other way; tested in A549 cells; also: nearly all actives have a fitted effect of over 35% in size; inactives centre near -10
# An asterisk follows results filed as active; i = inactive; ? = inconclusive; . = not tested or not shown; & = joins results of further samples. % is scaled to controls: 0 for no effect and ±100 for the full control effect; potency is read from the fitted curve at half-maximal effect.
SMILES,Vaccinia Venus,Vaccinia mCherry
CN1CCN(c2ccc(NC(=O)c3ccc(-c4ccccc4F)o3)cc2)CC1,-28.5%,-24.4%
NC(=O)CSc1nc2c(oc3ccccc32)c(=O)n1Cc1ccccc1,?,-28.9%
O=[N+]([O-])c1ccc(NCc2ccccn2)nc1,-8.7%,i
Cc1cccc(-c2nc(SCC(=O)NCC3CCCO3)c3c(=O)n(C)c(=O)n(C)c3n2)c1 (configuration not stated),-0.9%,-7.9%
CCOc1cc(CN2CCC(N3CCC(C(=O)NC4CC4)CC3)CC2)ccc1O,10.9%,i
O=C(Cn1cnc2ccccc2c1=O)c1ccc(OC(F)F)cc1,7.1%,-1.6%
CC(=O)C[C@@H]1OC[C@H](Cc2ccccc2)N1S(=O)(=O)c1ccc(C)cc1,-1.1%,i
CCOC(=O)C(C)c1c(C)[nH]c(=S)[nH]c1=O (configuration not stated),-14.2%,.
O=C(O)c1ccccc1-c1ccccc1C(=O)NNc1ccccc1,-6.9%,i
CS(=O)(=O)OCCCCOS(C)(=O)=O,-14.7%&-6.7%,-20.4%&-8.7%
CC(C)Oc1ccc(F)cc1-c1cc(C(=O)N2CCc3ccccc3C2)[nH]n1,-14.4%,10.4%
Cc1cc(C(=O)N2CCC2(C)C(=O)Nc2ccc3[nH]ncc3c2)nn1C (configuration not stated),-0.6%,-10.4%
CC1(C(=O)Nc2ccc3ccccc3c2)CCC(=O)N1CCOc1ccccc1 (configuration not stated),-10.2%,i
CN1C(=O)/C(=C/c2cccn2-c2ccc3ccccc3c2)C(=O)NC1=S,25.0%,.
COc1cccc(/C=C/C(=O)NCc2cn3cc(Cl)ccc3n2)c1OC,-2.1%,i

# A draw from above in order of number of heavy atoms, highest first:
SMILES,Vaccinia Venus,Vaccinia mCherry
Cc1cccc(-c2nc(SCC(=O)NCC3CCCO3)c3c(=O)n(C)c(=O)n(C)c3n2)c1 (configuration not stated),-0.9%,-7.9%
CCOc1cc(CN2CCC(N3CCC(C(=O)NC4CC4)CC3)CC2)ccc1O,10.9%,i
CN1CCN(c2ccc(NC(=O)c3ccc(-c4ccccc4F)o3)cc2)CC1,-28.5%,-24.4%
NC(=O)CSc1nc2c(oc3ccccc32)c(=O)n1Cc1ccccc1,?,-28.9%
O=C(O)c1ccccc1-c1ccccc1C(=O)NNc1ccccc1,-6.9%,i
O=C(Cn1cnc2ccccc2c1=O)c1ccc(OC(F)F)cc1,7.1%,-1.6%
CS(=O)(=O)OCCCCOS(C)(=O)=O,-14.7%&-6.7%,-20.4%&-8.7%

# (cont.)
SMILES,Vaccinia Venus,Vaccinia mCherry
CC1(C(=O)NS(=O)(=O)c2cccc(OC(F)F)c2)CCN1C(=O)CC(c1ccccc1)c1ccccc1 (configuration not stated),14.4%,9.5%
CCOC(=O)/C(=N/Nc1ccccc1)Sc1nnnn1-c1ccc(C)cc1,-13.2%,-15.5%
CCOc1ccc(N(C(=O)c2cnsn2)C(C(=O)NC2CCCCC2)c2ccncc2)cc1 (configuration not stated),-2.9%,-5.1%
Cc1cc(-c2n[nH]c(=S)n2/N=C/c2cc([N+](=O)[O-])ccc2Cl)n[nH]1,-14.1%,-15.7%
Cc1cc(Cl)c2oc(C(=O)N3CCN(c4ccncc4)CC3)c(C)c2c1,?,-11.1%
[O-]/[N+](=C/c1ccc(F)cc1)c1ccc(Cl)cc1,-2.0%,i
CC(C)(C)NC(=O)C(c1ccc(O)cc1)N(Cc1ccco1)C(=O)Cn1nnc(-c2cccs2)n1 (configuration not stated),-13.6%,-20.2%
CNC(=O)c1c(NC(=O)C2=COCCO2)sc2c1CCN(C(=O)OC)C2,-16.2%,-8.6%
COC(=O)c1c(C(=O)OC)n(CCCN)c2ccc(C)cc12,-16.5%,-26.7%
O=C(COC(=O)[C@@H]1CC(O)CN1S(=O)(=O)c1ccccc1[N+](=O)[O-])c1ccccc1 (some centres not stated),-6.3%,-13.0%
CC1Cc2cc(/C(O)=C3\C(=O)C(=O)N(CCN4CCOCC4)C3c3ccccc3F)ccc2O1 (configuration not stated),?,.
COc1cc2ccccc2cc1C(=O)OCC(=O)N(CC(C)C)c1c(N)n(Cc2ccccc2)c(=O)[nH]c1=O,?,?
Cc1cc(C)c2cc(CN(Cc3ccc4c(c3)OCO4)Cc3nnnn3Cc3ccco3)c(=O)[nH]c2c1,?,.
CCN(CC(=O)Nc1c(F)cccc1F)C(=O)c1cc(C)oc1C,-7.0%,-6.0%
CC(=O)c1ccccc1OCCn1nc(C(=O)O)c2ccccc2c1=O,-15.0%,-2.6%
CCCCC(c1nnnn1CC1CCCO1)N1CCN(c2cccc(C)c2C)CC1 (configuration not stated),-30.0%,.
COc1ccc(C(=O)c2sc(Nc3ccccc3)nc2N)cc1OC,?,?
COc1ccc(NC(=O)[C@H](CCS(C)(=O)=O)N2Cc3ccccc3C2=O)c(OC)c1,-6.1%,?
CCOC(=O)c1sc2nc(C)nc(NCc3ccccc3OC)c2c1C,-5.2%,i
O=C(COc1ccc(Br)cc1)N1CCc2ccccc2C1,-12.5%,-1.4%
CCCn1c2ccccc2c2nc3ccccc3nc21,-6.1%,-10.4%
N/C(=N\OC(=O)C(c1ccccc1)c1ccccc1)c1ccncc1,-11.9%,?
Cc1ccc(C)c(NS(=O)(=O)c2ccc3c(c2)NC(=O)CCS3)c1,-5.7%,i
Cc1ccc(N(Cc2ccccc2)C(=O)c2cccc(S(=O)(=O)N3CCOCC3)c2)cc1,-9.7%,-20.2%
CCN(C(=O)COc1cc(=O)n(CC)c2ccccc12)c1cc(Cl)ccc1OC,-4.7%,-11.3%
CC12CCC(=O)N1C(C(=O)Nc1ccc(F)c(F)c1F)CS2 (configuration not stated),-15.1%,-0.2%
COc1ccc(COC(=O)c2nc3nc(C)cc(C)n3n2)cc1F,-3.6%,-12.6%
COC(=O)C1(C)Nc2ccccc2C(=O)N1c1ccccc1OC (configuration not stated),-0.3%,-5.6%
O=C(Nc1ccc(-c2nc3ccccc3s2)cc1)C1=COCCO1,-2.3%,i
COc1ccccc1NC(=O)c1ccccc1C(=O)N(C)Cc1ccccc1,-15.3%,i

# Complete entries, quoted from the list. Order of values: Vaccinia Venus	Vaccinia mCherry
# COc1ccc(NC(=O)[C@H](CCS(C)(=O)=O)N2Cc3ccccc3C2=O)c(OC)c1 is entered as -6.1%	?
# CC12CCC(=O)N1C(C(=O)Nc1ccc(F)c(F)c1F)CS2 (configuration not stated) is entered as -15.1%	-0.2%
# COC(=O)C1(C)Nc2ccccc2C(=O)N1c1ccccc1OC (configuration not stated) is entered as -0.3%	-5.6%

# New compounds follow:
SMILES,Vaccinia Venus,Vaccinia mCherry
Cc1ccc2nsnc2c1S(=O)(=O)N1CCN(Cc2ccc3c(c2)OCO3)CC1,-15.8%,-11.9%
CCOC(=O)c1ccc(NC(=O)c2nc[nH]c2C(=O)NCCCCNC(=O)c2[nH]cnc2C(=O)Nc2ccc(C(=O)OCC)cc2)cc1,?,?
CN(C(=O)COC(=O)c1ccccc1C(=O)c1ccccc1)c1ccccc1,-20.0%,-24.2%
Cc1cccc(C)c1NC(=S)NN(Cc1ccccc1)c1ccccc1,-3.6%,-6.8%
Cc1ccc(C(=O)CSc2nnc3ccc4ccccc4n23)cc1,-2.4%,-6.8%
COc1ccccc1Cn1nc(C(=O)O)c2ccccc2c1=O,-10.1%,-8.3%
CCOc1ccccc1NC(=O)Cn1c(=O)n(Cc2ccccc2)c(=O)c2c3c(sc21)CN(C(C)=O)CC3,1.4%,0.7%
Cc1nc2ccc([N+](=O)[O-])cc2c(=O)n1Cc1ccc(Br)cc1,-5.5%,i
COc1ccc(-n2c(SCC(=O)Nc3ccc(Cl)c(C)c3)nc3n[nH]c(C)c3c2=N)cc1,-28.3%,-6.0%
O=C(c1ccccc1)N1CCN(c2ccc([N+](=O)[O-])c(NCC3CCCO3)c2)CC1 (configuration not stated),-22.0%,-5.3%
O=C(OCc1ccccc1)N1CCC2CC1c1ccc(N3CCN(Cc4ccc5c(c4)OCO5)CC3)cc12 (configuration not stated),-6.6%,13.0%
O=C1C(=O)N(CCN2CCOCC2)C(c2cccnc2)/C1=C(/O)c1ccc(Cl)cc1 (configuration not stated),-8.5%,i
O=C(Nc1ccccc1Cl)c1cc(C2CCCCN2C(=O)CCc2ccccc2)on1 (configuration not stated),-10.9%,-4.3%
C=CCNC(=S)NNC(=O)c1ccc(OCC(C)C)cc1,-19.9%,-4.0%
CCC1=Nc2cc(C(=O)NCCc3ccc(OC)c(OC)c3)ccc2Sc2ccccc21,-15.1%,-25.9%
Cc1cc(-c2nnc3n2N=C(C(C)(C)C)CS3)n[nH]1,-17.4%,-12.9%
Cc1cccc(NC(=O)N2CCC(CN3CCC(C)CC3)CC2)c1C,6.3%,-17.8%
CN(C(=O)c1ccc(S(=O)(=O)N2CCOCC2)cc1)C1CCS(=O)(=O)C1 (configuration not stated),-7.6%,-8.4%
COc1ccccc1NC(=O)CSc1nc(=O)n(Cc2ccncc2)c2c1CCCC2,-10.9%,i
O=C(c1ccc(Cl)c(S(=O)(=O)N2CCCC2)c1)N1CCN(c2ncccn2)CC1,7.3%,-2.8%
COc1ccccc1/C=N/NC(=O)c1ccc(NC(=O)c2ccccc2Br)cc1,-4.5%,-21.7%
Cc1cnc(-c2nc3ccccc3n2C(C(=O)NC(C)(C)C)c2cc3ccccc3o2)cn1 (configuration not stated),-4.0%,11.7%
CCOCCCNC(=O)c1ccc2nc(-c3ccc(OC)c(OC)c3)c(-c3ccc(OC)c(OC)c3)nc2c1,-14.1%,-18.9%
CC1=CCC2C(=O)N(c3ccc(C)c(Br)c3)C(=O)C2C1 (configuration not stated),-13.0%,-3.6%
Cn1nc(-c2ccccc2)cc1NC(=O)Nc1ccc(F)cc1,-4.3%,i
COc1ccc(NC(=O)C2CCN(C(=O)C3CC(=O)N(c4ccc(C)cc4)C3)CC2)c(OC)c1 (configuration not stated),0.9%,-9.3%
COc1cccc(C(=O)Oc2c(Sc3ccc(C)cc3)c(C)nn2C(C)(C)C)c1OC,?,?
CCOC(=O)c1c(NC(=O)COc2cc(C)ccc2C(C)C)sc(C)c1C,-3.2%,-9.6%
CCOc1nnc(C)c2c(C)n(-c3cccc(OC)c3)nc12,-19.4%,.
CCOC(=O)c1c(S(=O)(=O)NCC(=O)NCc2ccc(C)cc2)c(C)n(C)c1C,-16.7%,-16.6%
O=C(CCN1C(=O)CSC1=O)Nc1ccccc1,-4.4%,-13.0%
Cn1c(=O)c2c(ncn2CC(O)CO)n(C)c1=O (configuration not stated),-9.3%&-6.5%,-12.8%&-17.4%
O=C(NCCc1nccs1)C1CCC(=O)N(CCc2ccc(Cl)cc2)C1 (configuration not stated),-10.9%,i
CN1C(=O)N(CC(=O)c2ccc3c(c2)OCO3)C(=O)C12CCCCC2,-18.6%,i
N[C@@H](CO)c1nnc([C@H](CC(=O)O)NC(=O)C2CCNCC2)o1,-5.2%,i
O=c1oc(=S)oc2c1[C@H](c1ccc(Cl)cc1)O[C@H](C1CC1)C2,1.7%,3.1%
CC(=O)c1ccc(NC(=O)Cn2nc(N3CCN(c4ccccc4)CC3)ccc2=O)cc1,-3.6%,-6.2%
Cc1cc(C)cc(C(O)c2ncc(-c3ccccc3C)[nH]2)c1 (configuration not stated),-19.3%,i
Cc1ccc2cc3cc(C(=O)NCc4ccc5c(c4)OCO5)oc3nc2c1,-12.3%,-1.7%
Cc1cc(C)cc(C(=O)OCC(=O)NC(=O)NC2CCCC2)c1,-13.0%,-12.2%
C[C@H]1CNC(=O)C(=O)N1C[C@H](Cc1ccc(O)cc1)NC(=O)CC12CC3CC(CC(C3)C1)C2,-9.1%,-28.6%
Cc1sc2nc(SCC(=O)N(C)C)[nH]c(=O)c2c1C,?,.
O=C1NCCCC1C(=O)N/N=C/c1ccccc1 (configuration not stated),-4.8%,i
COc1ccc(-c2cc3c(o2)CCCC3OCCN2CCOCC2)cc1 (configuration not stated),2.2%,-4.8%
CN1OC[C@@H]2CN(C(=O)c3ccco3)[C@H](c3ccc(-c4ccc(C#N)cc4)cc3)C[C@@H]21,-14.4%,-11.8%
CC1Cc2ccccc2N1Cc1ccc([N+](=O)[O-])cc1 (configuration not stated),-8.6%,-29.9%
Cc1ccc2cc3cc(C(=O)N4CCN(c5ccccc5)CC4)oc3nc2c1,-6.2%,-1.6%
Cc1ccc2cc(CN(Cc3ccco3)Cc3nnnn3Cc3ccco3)c(=O)[nH]c2c1,-20.7%,-13.9%
N#Cc1cccc(NC(=O)Cn2c3[n+](c4ccc(C(F)(F)F)cc42)CCCCC3)c1,1.8%,i
COc1nc(C#N)nc(N2CCCC2)n1,-6.6%,-18.6%
O=C1C(CO)C(CO)C(CO)C1CO (configuration not stated),9.7%,-9.0%
CCOc1ccccc1NC(=O)CSc1nnc(N)s1,-18.9%,-10.8%
C=C(C)Cn1c(=O)n(CC2CS2)c2ccccc21 (configuration not stated),?,?
C=CCNC(=S)NNC(=O)c1ccc([N+](=O)[O-])cc1,-7.4%,-12.8%
CCc1ccccc1NC(=O)C1CCCN(c2nn3c(=O)cc(C)nc3s2)C1 (configuration not stated),-0.4%,2.4%
O=C(CCCn1cnc([N+](=O)[O-])n1)Nc1cc(Cl)ccc1O,-17.2%,?
CNc1oc(/C=C/c2cc(OC)c(OC)c(OC)c2)nc1C#N,-15.6%,-12.0%
COc1ccc(N(Cc2ccc(N(C)C)cc2)C(=O)c2ccc(S(C)(=O)=O)cc2)cc1,-10.5%,i

# Screening results (PubChem BioAssay)

# Outcome played no part in choosing rows (roughly 0.87% active in at least one column).
